Compound activity: PubChem BioAssay, National Center for Advancing Translational Sciences (NCATS)
Rango dissoc inh: qHTS Assay for Inhibitors of RanGTP induced Rango (Ran-regulated importin-beta cargo) - Importin beta complex dissociation; Snurportin-1 (Homo sapiens) + GTP-binding nuclear protein Ran (Homo sapiens) + Importin …; Biochemical FRET Rango-importin beta, RanGTP-induced dissociation; Potency, µM (doses to about 46.1 µM), inactives show at the top dose activity change, negative = inhibition; actives 0.071% (n = 340,000); active means falling FRET ratio curve, often poorly fitted, with flat reads before Ran was added; inconclusive means other falling curves, or compound fluorescence or quenching; inactive means flat or rising ratio curve;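 note: potency is the fitted concentration of half-maximal effect; % of control where 0% means no effect; nearly all actives have a fitted effect of over 45% in size; -100% = wells without RanGTP and RCC1; the record marks most hits as doubtful in a second field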
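Compounds preincubate 5 min with complex of recombinant Rango and importin beta in PBS with 1 mM DTT. Ran (0.6 uM) loaded with 2 mM GTP plus 0.2 uM RCC1 starts dissociation; FRET is recorded 45 min later.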
Rango complex inh: qHTS Assay for Inhibitors of Rango (Ran-regulated importin-beta cargo) - Importin beta complex formation; Rango CFP/YFP FRET sensor + importin beta, 45 min; Potency, µM (top dose mostly 92.2 µM), for the others: top-dose inhibition of complex formation; actives 0.031% (n = 340,000); AID 540263, 2011; active = rising FRET ratio curve, often small or poorly fitted; inconclusive = mostly compound fluorescence or quenching in the first reads; inactive = flat curves in all reads;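 note: potency is the fitted concentration of half-maximal effect; 0% = DMSO wells and 100% = buffer wells lacking importin beta; nearly all actives have a fitted effect of over 15% in size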
Target sequence (Q14974 whole entry, looked up): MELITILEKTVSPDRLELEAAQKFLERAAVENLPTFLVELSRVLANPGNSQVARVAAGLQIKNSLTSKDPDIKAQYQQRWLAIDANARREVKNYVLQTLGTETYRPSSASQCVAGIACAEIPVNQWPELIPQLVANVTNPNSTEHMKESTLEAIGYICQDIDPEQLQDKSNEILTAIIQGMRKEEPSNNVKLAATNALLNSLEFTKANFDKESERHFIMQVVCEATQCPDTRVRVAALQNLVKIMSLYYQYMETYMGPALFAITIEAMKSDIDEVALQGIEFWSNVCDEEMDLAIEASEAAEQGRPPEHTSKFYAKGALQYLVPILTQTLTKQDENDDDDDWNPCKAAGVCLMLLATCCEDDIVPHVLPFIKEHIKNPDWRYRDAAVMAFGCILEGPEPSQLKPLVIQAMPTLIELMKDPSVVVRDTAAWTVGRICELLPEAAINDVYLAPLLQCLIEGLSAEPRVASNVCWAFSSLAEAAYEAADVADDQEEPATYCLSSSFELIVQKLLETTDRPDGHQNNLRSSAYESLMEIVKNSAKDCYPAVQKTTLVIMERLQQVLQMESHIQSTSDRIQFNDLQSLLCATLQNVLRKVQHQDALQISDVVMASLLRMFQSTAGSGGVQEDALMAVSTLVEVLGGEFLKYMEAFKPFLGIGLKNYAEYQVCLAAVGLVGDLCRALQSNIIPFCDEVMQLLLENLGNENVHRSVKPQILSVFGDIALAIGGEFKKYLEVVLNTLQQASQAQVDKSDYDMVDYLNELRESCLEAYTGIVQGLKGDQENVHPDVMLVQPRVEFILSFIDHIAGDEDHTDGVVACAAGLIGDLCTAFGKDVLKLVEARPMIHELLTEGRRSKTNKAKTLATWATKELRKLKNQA
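FRET biosensor (snurportin 1 IBB flanked by EYFP and cerulean), 50 nM, with compound 5 min, then 0.125 microM importin beta in PBS, 1 mM DTT, 0.02% Tween-20, 0.1% BSA. CFP/YFP ratio read after 45 min at room temperature; pre-read flags interference.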
miR-21 reporter: qHTS Assay for Modulators of miRNAs and/orActivators of miR-21 | HeLa miR-21 FLuc reporter, luciferase, 48 h | Potency, µM (doses to about 38.3 µM), for inactives: top-dose reporter change, positive = more light | 340,000 tested, under 10 active; active = well fitted rising curve with a large enough effect; inconclusive = small, poorly fitted or top-dose-only effect; inactive = no such curve, though single readings can be large or run the other way;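 note: % of control where 0% means no effect; miR-21 action dims this reporter so a rising signal means less miR-21 action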
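Luminescence from a firefly luciferase reporter carrying a miR-21 binding site downstream, stably expressed under a CMV promoter in HeLa cells that make miR-21 endogenously, reports miRNA modulation after 48 h compound exposure up to approximately 40uM final.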
GLA inh pH 4.5: qHTS Assay for Inhibitors of Human alpha-Galactosidase at pH 4.5. purified enzyme, 4-MU-alpha-Gal fluorescence, pH 4.5. activity change, negative = inhibition, % at 105 µM. 230,000 tested, under 10 active; inconclusive = small, poorly fitted or top-dose-only inhibition, or a rising curve; inactive = flat fitted curve, though single readings scatter; no compound was filed as active;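 note: 0% = full activity with enzyme and -100% = basal without enzyme; dose as in the result columns while the protocol names 77 µM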
Active calls of the source: *; ? = inconclusive; / = no result given; & = joins results of further samples. These rows are one share of the data (hit frequency here may not be typical).

SMILES | Rango dissoc inh | Rango complex inh | miR-21 reporter | GLA inh pH 4.5
CCOc1ccc(CCNS(=O)(=O)c2ccc3c(c2)oc(=O)n3C)cc1OCC | -14.6% | 5.8% | -4.6% | /
O=C(C[n+]1cc(Br)cc2ccccc21)c1ccc(Br)cc1 | 1.1% | 5.8% | -2.6% | /
CCNc1nc(NCC)n2c(SC(C(=O)Nc3cc(C)ccc3OC)c3ccccc3)nnc2n1 (centres undefined) | -3.2% | 2.1% | 5.4% | 0.0
COc1ccc(C(=O)COC(=O)c2cccnc2Cl)c(OC)c1 | -6.3% | -4.0% | -37.3% | -5.6
CC1(C)Cc2c(c(-c3ccco3)nc3sc4c(NCC5CCCO5)ncnc4c23)CO1 (centres undefined) | -4.1% | -0.8% | -12.9% | -0.5
CSCCC(NC(=O)c1ccccc1Br)C(=O)NCC(C)(C)N1CCOCC1 (centres undefined) | -3.9% | 0.0% | / | /
Cn1ccs/c1=N\S(=O)(=O)c1ccc(C(C)(C)C)cc1 | 19.5% | 1.4% | -8.2% | -16.5
O=C(NC1CCCCC1)c1ccc(S(=O)(=O)N2CCCC2)cc1 | -5.3% | 1.4% | -13.7% | -1.2
Cc1ccc(-c2[nH]ncc2/C=N/n2c(COc3ccccc3C)nc3ccccc3c2=O)cc1 | -5.8% | -2.4% | -12.7% | -2.8
Cc1c(NC(=O)C2CCCCC2)cc(C(=O)N2CCOCC2)cc1[N+](=O)[O-] | 20.6% | -0.3% | -1.5% | -1.5
Cn1c(=O)c2c(ncn2CC(=O)Nc2ccccc2Sc2ccccc2)n(C)c1=O | -4.4% | 0.2% | -2.5% | -0.1
CCN1CCCC(NC(=O)c2cc([N+](=O)[O-])ccc2OC)C1 (centres undefined) | -7.1% | -1.3% | -2.2% | 1.4
COCCNC(=O)COc1ccc(Oc2ccccc2)cc1 | 10.0% | 2.2% | -16.6% | -8.0
COc1cccc2c1OCC/C2=N\NC(=O)COc1ccc(C)cc1 | 0.0% | 2.9% | -33.0% | 8.4
Cc1ccc(C(=O)N2CCN(c3ncccn3)CC2)cc1 | -18.5% | 0.9% | 0.5% | /
O=C(CSc1ccc2ccccc2c1)Nc1ccc(S(=O)(=O)Nc2nccs2)cc1 | 9.3% | ? | -8.9% | -2.2
Cc1cccc2[nH]c3c(=O)n(CCN4CCNCC4)cnc3c12 | 0.7% | 0.3% | -4.0% | -13.1
CC(=O)c1c(C)oc2ccc(N(C(C)=O)S(=O)(=O)c3ccc(Cl)c([N+](=O)[O-])c3)cc12 | -9.5% | -0.5% | -0.1% | -3.9
CC(=O)c1cc(-c2ccccc2)n(CC(=O)N2CCCC2)c1C | 7.7% | 0.9% | -0.5% | -3.0
OCc1ccccc1CNCc1ccccc1 | -5.9% | 4.8% | -2.5% | -9.5

Just Rango complex inh, for some of the entries so far:
structure | Rango complex inh
O=C(NC1CCCCC1)c1ccc(S(=O)(=O)N2CCCC2)cc1 | 1.4%
Cc1ccc(-c2[nH]ncc2/C=N/n2c(COc3ccccc3C)nc3ccccc3c2=O)cc1 | -2.4%
Cc1c(NC(=O)C2CCCCC2)cc(C(=O)N2CCOCC2)cc1[N+](=O)[O-] | -0.3%

Additional structures:
SMILES | Rango dissoc inh | Rango complex inh | miR-21 reporter | GLA inh pH 4.5
COc1ccc(C(C)=O)cc1COC(=O)Cc1n[nH]c(=O)c2ccccc12 | 10.2% | 0.6% | -15.6% | -1.9
CC(C)=CC(=O)N1CC[C@@H](N2CCN(c3ccccc3F)CC2)[C@H](O)C1 | ? | 2.3% | 2.3% | /
COC(=O)c1ccc(COC(=O)CCNS(=O)(=O)c2ccc(C)c(C)c2)cc1 | 5.5% | 1.1% | / | /
CC1(C(O)(C#CC[N+]2(C)CCCCC2)c2ccccc2)CCCC1 (centres undefined) | 47.0% | 1.0% | 0.3% | 10.4
Cc1ccc(C(c2nnnn2CCc2ccccc2)N2CCC(C)CC2)cc1 (centres undefined) | -2.8% | -0.4% | 13.4% | 2.6
Cc1[nH]nc(SCC(=O)NC(C)c2ccccc2)c1[N+](=O)[O-] (centres undefined) | -13.7% | -0.8% | -8.2% | -5.9
O=C(OCC(=O)N1CCN(c2ccccc2)CC1)c1ccc2ncsc2c1 | -1.5% | -1.1% | -2.0% | -0.7
CCC(C)NS(=O)(=O)c1ccc(NC(=O)c2ccc([N+](=O)[O-])cc2Cl)cc1 (centres undefined) | 1.5% | -0.7% | 12.0% | -9.8
CC1CN(C2CCN(C(=O)COc3ccc(Cl)cc3)CC2)CC(C)O1 (centres undefined) | -2.1% | -1.8% | -5.7% | -9.3
COc1ccc(S(=O)(=O)N(C)C[C@H]2Oc3c(NC(=O)c4ccncc4)cccc3C(=O)N([C@H](C)CO)C[C@@H]2C)cc1 | -0.6% | ? | / | /
COc1cccc(CN(C)C(=O)C(Cc2ccccc2)NC(=O)c2ccccc2)c1OC (centres undefined) | 14.6% | -0.1% | / | /
Clc1ccc(CN2CC[C@H]3C=CCc4cccc(c43)C2)cc1 | ? | ? | / | /
CC(/C=N/NC(=O)c1ccccc1C)=C\c1ccccc1 | 0.9% | -0.3% | / | /
O=C(N[C@@H](Cc1ccccc1)c1nc2ccccc2[nH]1)c1cc([N+](=O)[O-])ccc1Cl | 7.3% | 1.2% | 3.0% | 0.7
COc1ccc(C(=O)NNC(=O)CCC(=O)Nc2cc(C)on2)cc1 | 5.6% | -0.9% | -0.2% | -1.1
COc1cc(/C=N/NC(=O)c2cc(-c3cccc(Br)c3)nc3ccccc23)cc(OC)c1O | -14.5% | 0.0% | / | /
Cc1ccc(C)c(-n2nnnc2Sc2nc([N+](=O)[O-])nn2C)c1 | 12.0% | 0.1% | 4.1% | 1.8
CCOC(=O)C1=C(O)CSC1=Nc1ccc(C)cc1 | 9.4% | -2.2% | 2.1% | 1.9
O=C(O)C1C2CC2CN1C(=O)c1ccc(Cl)cc1Cl (centres undefined) | -8.6% | -0.8% | -0.5% | -4.9
COc1cccc(CC(=O)Nc2ccccc2C(=O)N2CCOCC2)c1 | 0.5% | -5.2% | -3.9% | 5.2
COc1cc(NC(=S)NCCCN(C)C)c(OC)cc1NC(=O)c1ccco1 | 23.0% | -5.3% | -1.3% | 4.7
CCCCN1CCNC[C@@H]1Cc1ccc(O)cc1 | 36.8% | -0.1% | / | /
O=C1C=C(c2ccccc2)CC(c2ccc(F)cc2)C1 (centres undefined) | ? | -1.6% | / | /
COc1ccc(/C=C2/C(=O)N(c3c(F)c(F)c(F)c(F)c3F)N=C2C)cc1 | -9.2% | 0.2% | -2.5% | /
O=S(=O)(Nc1ccc(-n2cnnn2)cc1)c1ccc(F)c(F)c1F | 51.1% | 0.0% | -18.1% | 4.0
Cc1c(C)n(C(=O)CSc2nc3ccccc3[nH]2)c2ccccc12 | 0.5% | -0.1% | -0.2% | -0.3
C=CC[C@@H](CC(=O)OC(C)(C)C)C(=O)OC[C@H]1CCCN1C(=O)[C@@H](CC=C)CC(=O)N[C@H](CO)Cc1ccccc1 | 2.3% | -2.1% | / | /
O=C(O)C1C2CCC(O2)C1C(=O)Nc1cccc(Cl)c1 (centres undefined) | 3.2% | 1.5% | 2.8% | /
CCOc1cc(C(=O)NC(C)COC)cc(OCC)c1OCC (centres undefined) | -9.4% | 0.7% | -1.6% | 4.4
Cc1nn(CC(=O)NC(C)c2ccccc2)c(C)c1[N+](=O)[O-] (centres undefined) | 21.4% | -3.7% | 3.8% | 6.1
COc1cccc(CNC(=O)c2ccc(NC(=O)C3=CSCCO3)cc2)c1 | -5.3% | -2.9% | -54.2% | /
O=C(Cc1ccc(Cl)cc1)NC1CCCN(Cc2ccccc2F)C1 (centres undefined) | 2.4% | 2.7% | 0.4% | /
CCc1cccc(NS(=O)(=O)c2c(C)[nH]c(=O)[nH]c2=O)c1 | -6.8% | 3.3% | 1.6%&-28.7% | /
CCOC(=O)C1=C(C)NC(=O)NC1c1ccc(N(C)C)cc1 (centres undefined) | -8.2% | -4.2% | -5.6% | 12.5
CC1CCN(S(=O)(=O)c2cccc(C(=O)NC3CCCCC3)c2)CC1 | 4.0% | -4.7% | -3.1% | /
COc1cccc(NC(=O)CC2(CC(=O)O)CCCC2)c1 | 1.0% | 0.8% | -4.0% | -0.3
COc1cccc(N2C(=O)[C@H]3C(C(=O)c4cnccn4)=NN[C@H]3C2=O)c1 | -28.1% | -1.2% | -9.5% | -18.2
O=C(O)CCCC(=O)NCc1c(Cl)cccc1Sc1ccc(Cl)cc1 | -8.4% | -2.2% | -0.1% | -13.9
CCCC1C(=O)N2C(N(C)C)=Nc3ccc(C)cc3N2C1=O (centres undefined) | -14.5% | -1.6% | / | /
Cc1cc(C)cc(OC(C)C(=O)Nc2ccc3c(c2)n(C)c(=O)n3C)c1 (centres undefined) | -5.9% | 0.0% | -1.3% | /
COCCCN(C(=O)Cc1coc2cc(C)c(C)cc12)c1c(N)n(Cc2ccccc2)c(=O)[nH]c1=O | 5.8% | -1.2% | / | /
Cc1cc(C(=O)N/N=C/c2cc(Br)c(Br)o2)n[nH]1 | -7.8% | -1.1% | -30.3% | /
CCn1cc(CCC(=O)NCCN2CCOCC2)c2ccccc21 | 15.7% | 0.1% | -2.4% | /
COc1ccc(C(=O)CN2C(=O)c3ccccc3S2(=O)=O)cc1 | -2.2% | 0.4% | ? | -8.4
Cn1cnc(S(=O)(=O)N2CCN(c3ccc(Cl)cc3)CC2)c1 | 16.0% | 0.7% | 0.7% | /
O=C(CCl)NN1C(=O)NC(c2ccccc2)(c2ccccc2)C1=O | 13.5% | -0.1% | 27.1% | /
Cc1ccc(NC(=O)CC2NCCNC2=O)cc1Cl (centres undefined) | 4.3% | -0.4% | -11.5% | -1.1
CC1CCC/C(=N/Nc2nc3ccccc3s2)C1 (centres undefined) | ? | ? | -41.0% | 4.9
Cc1nn(CCOc2ccccc2)c(=O)n1-c1ccc(F)cc1 | 2.5% | -2.2% | -33.3% | -20.4
COc1ccc(NC(=O)N2CCCC(C(=O)Nc3cccc(C)c3C)C2)cc1 (centres undefined) | -17.6% | -3.8% | 2.3% | /
O=C(NNC1CC(=O)N(c2ccccc2)C1=O)c1ccc(COc2ccccc2Cl)o1 (centres undefined) | -12.9% | -1.2% | -1.5% | 4.0
Cc1csc(NC(=O)CSc2nc3nc(C)cc(C)n3n2)n1 | 3.9% | 1.9% | / | /
CN(C)/C=C/C(=O)c1ccc([N+](=O)[O-])c(CS(=O)(=O)c2ccc(Cl)cc2)c1 | 0.3% | -4.5% | 1.4% | /
Cc1noc(C)c1CSc1nnc(-c2ccccc2)n1Cc1ccco1 | 17.0% | 0.2% | -2.3% | 0.0
COc1cc(C(=O)Nc2ccc3c(c2)OCO3)ccc1-n1cnnn1 | -4.2% | -3.4% | -15.5% | -3.0
CCOC(=O)c1c(NC(=O)CSc2nncs2)sc(C)c1C | -20.0% | ? | 1.2% | -14.9
Cc1cc(Br)ccc1OCc1nc(-c2cccnc2)no1 | 30.0% | 5.9% | -11.6% | -18.2
Cc1cc(OC(C)C(=O)NCC(O)c2ccccc2)c2c(C)cc(=O)oc2c1 (centres undefined) | 40.1% | 6.4% | 0.9% | /
Cc1ccccc1NC1=C(C(=O)c2ccccc2)N(C)S(=O)(=O)c2ccccc21 | -6.1% | 0.3% | -1.4% | ?
CCOC(=O)C1=C(CS(=O)(=O)c2ccc(F)cc2)NC(=O)NC1c1cc(OC)c(O)c(OC)c1 (centres undefined) | -0.9% | 0.6% | -1.2% | /
CNC(=O)C1CC(=O)N(c2ccc(OCC(=O)Nc3ccc(OC)cc3)cc2)C1 (centres undefined) | 0.1% | -0.3% | / | /
C=CCn1c(SCC(=O)NC2CCCC2)nnc1-c1ccncc1 | 0.8% | -1.0% | -1.9% | /
